Prx2 Sm inh = blocks S. mansoni peroxiredoxin 2 enzymatic activity; S. mansoni Prx2 activity coupled to TGR/GSH (TGR is thioredoxin glutathione reductase), NADPH fluorescence loss, qHTS; some inactives read as strong as hits; Potency, µM; hit rate 0.07% among 65,000; AID 448; active means full or partial inhibition curve with a strong effect at the top dose; inconclusive means weaker partial or single-point curve; inactive means no accepted curve; note: series up to 57 µM; many of its hits are not listed in these tables
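Activity is read as the drop in NADPH fluorescence (365/450 nm), recorded every 30 sec for 8 min after H2O2 addition. Prx2 is coupled to TGR-driven NADPH oxidation through glutathione, in phosphate buffer pH 7.4.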
Anthrax LT inh = blocks cellular internalization of anthrax lethal toxin; Potency, µM (series often up to 40 µM), without a hit: top-dose activity change, negative = inhibition, most hits filed as inhibitors; hit rate 0.67% among 70,000; AID 912; Cells, anthrax lethal toxin internalization, FRET ratio (460/530); active = well fitted falling ratio curve with the 530 nm signal flat; inconclusive = other ratio curves, or a change in one channel alone; inactive = flat curves in the ratio and both channels; the % refers to the ratio; note: % is set by controls: 0 for no effect and ±100 for the full control effect; nearly all actives have a fitted effect of over 50% in size; tested in ME-180 cells; beta-lactamase reporter
Starred values were filed as active, the others as inactive; & = joins results of further samples; [ ] = remark or other dose. Potency is the fitted concentration of half-maximal effect. The list is partial; the hit share may differ from the screen's.

Start of the listing, in advance (6 entries):
Results for Cn1c(=O)c2c(nc(NCCO)n2CCc2ccccc2)n(C)c1=O ?
Prx2 Sm inh: >57; Anthrax LT inh: 2%

How did Cc1oc(-c2ccccc2F)nc1CN1CCC(C(=O)NCc2cccnc2)CC1 do in these assays?
Prx2 Sm inh: >57; Anthrax LT inh: -6%

Results for Cc1cc(NS(=O)(=O)c2ccccc2)cc(Cl)c1O ?
Anthrax LT inh: -10%

How did COc1ccc(-n2c(Cc3cccn3C)nnc2SCC(=O)Nc2ccc3c(c2)OCCO3)cc1 do in these assays?
Prx2 Sm inh: >57; Anthrax LT inh: 5%

Results for Cc1cnc(CNc2ncnc3ccc(-c4cccc(C#N)c4)cc23)cn1 ?
Prx2 Sm inh: >57; Anthrax LT inh: inconclusive

Results for O=S(Cc1ccc(Cl)cc1)CC(O)COCc1ccc(Cl)cc1 (configuration not stated) ?
Anthrax LT inh: -9%

The whole of this part (from the top)
Results for Cn1c(=O)c2c(nc(NCCO)n2CCc2ccccc2)n(C)c1=O ?
Prx2 Sm inh: >57; Anthrax LT inh: 2%

How did Cc1oc(-c2ccccc2F)nc1CN1CCC(C(=O)NCc2cccnc2)CC1 do in these assays?
Prx2 Sm inh: >57; Anthrax LT inh: -6%

Results for Cc1cc(NS(=O)(=O)c2ccccc2)cc(Cl)c1O ?
Anthrax LT inh: -10%

How did COc1ccc(-n2c(Cc3cccn3C)nnc2SCC(=O)Nc2ccc3c(c2)OCCO3)cc1 do in these assays?
Prx2 Sm inh: >57; Anthrax LT inh: 5%

Results for Cc1cnc(CNc2ncnc3ccc(-c4cccc(C#N)c4)cc23)cn1 ?
Prx2 Sm inh: >57; Anthrax LT inh: inconclusive

Results for O=S(Cc1ccc(Cl)cc1)CC(O)COCc1ccc(Cl)cc1 (configuration not stated) ?
Anthrax LT inh: -9%

How did CCC(OC(=O)c1cccs1)C(=O)NCc1ccc2c(c1)OCO2 (configuration not stated) do in these assays?
Prx2 Sm inh: >57; Anthrax LT inh: 8%

Results for O=S(=O)(NCCc1ccccn1)c1cccs1 ?
Prx2 Sm inh: >57; Anthrax LT inh: 0%

Results for Cc1ncc(CO)c(CO)c1O ?
Prx2 Sm inh: >57; Anthrax LT inh: -1%[3.58 µM]

How did Cc1cc(Cl)c(S(=O)(=O)N2CCN(c3ccc(F)cc3)CC2)cc1OCC(N)=O do in these assays?
Prx2 Sm inh: >57; Anthrax LT inh: -5%

How did CC(C)[C@H](NC(=O)OC(C)(C)C)c1nnc(SCC(=O)Nc2ccc(Br)cc2)o1 do in these assays?
Prx2 Sm inh: >57; Anthrax LT inh: -12%

Results for CN(CP(=O)(O)CCc1ccccc1)S(C)(=O)=O ?
Anthrax LT inh: -13%

How did NC(=O)c1ccccc1OCC(=O)NS(=O)(=O)c1ccccc1 do in these assays?
Prx2 Sm inh: >57; Anthrax LT inh: 10%

What do the screens show for `CCCCC(C(=O)NCCC(C)C)N(CCCN1CCOCC1)C(=O)c1snc(C(N)=O)c1N` (configuration not stated)?
Prx2 Sm inh: >57; Anthrax LT inh: -2%

Results for Brc1cccc(-c2nnc3sc(CN4CCCCC4)cn23)c1 ?
Prx2 Sm inh: >57; Anthrax LT inh: 3%

Results for C(=N\n1cncn1)/c1ccc(N2CCOCC2)cc1 ?
Prx2 Sm inh: >57; Anthrax LT inh: 6%

How did COc1ccc(S(=O)(=O)NCCSc2ccccc2)cc1OC do in these assays?
Anthrax LT inh: -25%

How did NC(=O)c1ncn([C@@H]2O[C@@H](CO)[C@@H](O)[C@H]2O)c1O do in these assays?
Prx2 Sm inh: >57; Anthrax LT inh: 6%

Results for CCOC(=O)C1C(=O)NC23CCCC2C1c1ccccc1O3 (configuration not stated) ?
Prx2 Sm inh: >57; Anthrax LT inh: 2%

How did CS[C@@H](CC(=O)O)C(=O)O do in these assays?
Prx2 Sm inh: >57; Anthrax LT inh: 3%[8 µM]

Results for CCC(Sc1nc(C)cc(=O)[nH]1)C(=O)Nc1nc2c(s1)CCCC2 (configuration not stated) ?
Prx2 Sm inh: >57; Anthrax LT inh: 9%

What do the screens show for `CCOC(=O)c1c(-c2ccccc2)oc2ccc(OC(=O)N(C)C)cc12`?
Prx2 Sm inh: >57; Anthrax LT inh: inconclusive

What do the screens show for `CNC[C@H](O)c1ccc(O)cc1`?
Prx2 Sm inh: >57&>57; Anthrax LT inh: 16%[3.58 µM]

How did Cc1ccc(-c2noc(C3CCN(C(=O)Nc4ccc(C#N)cc4)CC3)n2)o1 do in these assays?
Prx2 Sm inh: >57; Anthrax LT inh: -8%

Results for CCOC(=O)Nc1c(O)ccc2oc(C)c(-c3ccccc3)c12 ?
Anthrax LT inh: -25%

How did O=C(CSc1nc2ncccc2[nH]1)Nc1ccc2c(c1)OCCO2 do in these assays?
Prx2 Sm inh: >57; Anthrax LT inh: inconclusive

How did C=CCn1c(C(C)NC(=O)COC)nc2ccccc21 (configuration not stated) do in these assays?
Prx2 Sm inh: >57; Anthrax LT inh: 2%

What do the screens show for `O=c1cnc2cnc(N3CCOCC3)nc2n1Cc1ccc(F)cc1`?
Prx2 Sm inh: >57; Anthrax LT inh: -30%

How did Fc1ccc(C(c2nnnn2Cc2ccco2)N2CCN(C3CCCCC3)CC2)cc1 (configuration not stated) do in these assays?
Prx2 Sm inh: >57; Anthrax LT inh: -24%

What do the screens show for `COCCCN(C(=O)Nc1ccccc1)C(C)c1ccncc1` (configuration not stated)?
Prx2 Sm inh: >57; Anthrax LT inh: -5%

How did O=C(O)c1[nH]c2ccccc2c1NS(=O)(=O)Cc1ccccc1 do in these assays?
Prx2 Sm inh: >57; Anthrax LT inh: -5%

What do the screens show for `CCOC(=O)CSc1nnc(CNC(=O)c2ccc(S(=O)(=O)N3CCCCC3)cc2)n1C`?
Prx2 Sm inh: >57; Anthrax LT inh: -6%

Results for COc1ccc(CN/C=C2\CCCCC2=O)cc1 ?
Prx2 Sm inh: >57; Anthrax LT inh: 4%

What do the screens show for `O=C(CCS(=O)(=O)Cc1ccccc1)N1CCN(Cc2ccccc2)CC1`?
Prx2 Sm inh: >57; Anthrax LT inh: 3%

Results for CC12CCC(C(=O)NCc3ccccn3)(OC1=O)C2(C)C (configuration not stated) ?
Prx2 Sm inh: >57; Anthrax LT inh: 12%

Results for Cc1ccccc1-c1nccc(NCc2cccs2)n1 ?
Prx2 Sm inh: >57; Anthrax LT inh: -3%

What do the screens show for `CCCn1c(SCC(=O)Nc2sc(C)c(C)c2C(=O)OC)nc2c1c(=O)n(C)c(=O)n2C`?
Prx2 Sm inh: >57; Anthrax LT inh: 10%

How did Cn1c(=O)c2c(nc(N3CCOCC3)n2Cc2c(F)cccc2Cl)n(C)c1=O do in these assays?
Prx2 Sm inh: >57; Anthrax LT inh: 1%

How did CC(=O)c1cccc(NC(=O)CC2SC(N3CCCCC3)=NC2=O)c1 (configuration not stated) do in these assays?
Prx2 Sm inh: >57; Anthrax LT inh: 10%

How did COC(=O)c1ccccc1OP1(=O)COc2ccccc2OC1 do in these assays?
Prx2 Sm inh: >57; Anthrax LT inh: 4%

What do the screens show for `Cc1ccc2oc(-c3ccco3)nc2c1`?
Prx2 Sm inh: >57; Anthrax LT inh: 0%

Results for Cn1c(=O)[nH]c(=O)c2c1ncn2CCN1CCOCC1 ?
Anthrax LT inh: 13%

Results for Cc1ccc(S(=O)(=O)N[C@H](C(=O)O)C(C)C)cc1 ?
Prx2 Sm inh: >57; Anthrax LT inh: 13%[8 µM]

Results for Nc1ccc2c(c1)ncn2CCCn1cnc2cc(N)ccc21 ?
Prx2 Sm inh: >57; Anthrax LT inh: -17%

Results for CCOC(=O)CSc1nc2ccccc2c(=O)[nH]1 ?
Prx2 Sm inh: >57; Anthrax LT inh: 11%

How did O=C(c1cc(C(F)(F)F)cc(C(F)(F)F)c1)N1CCC2(CC1)CCN(c1ncccn1)CC2 do in these assays?
Prx2 Sm inh: >57; Anthrax LT inh: 12%

Results for CCOC(=O)C1CCN(C(=O)c2oc3ccc(S(=O)(=O)N4CC(C)CC(C)C4)cc3c2C)CC1 (configuration not stated) ?
Prx2 Sm inh: >57; Anthrax LT inh: -13%

Results for O=C1CCCN1CCCNc1ncnc2c1[nH]c1ccccc12 ?
Prx2 Sm inh: >57; Anthrax LT inh: 17%

Results for Cc1cnc(NC(=O)CCCSc2nc3ccccc3s2)s1 ?
Prx2 Sm inh: >57; Anthrax LT inh: 18%

How did O=C(CSc1nnc(COc2ccc(F)cc2)o1)N1c2ccccc2CCc2ccccc21 do in these assays?
Prx2 Sm inh: >57; Anthrax LT inh: inconclusive

Results for O=C(O)CCSc1nc2ccccc2c(=O)[nH]1 ?
Prx2 Sm inh: >57; Anthrax LT inh: -18%

What do the screens show for `CC1c2[nH]c3ccccc3c2CCN1C(=O)Nc1ccccc1` (configuration not stated)?
Prx2 Sm inh: >57; Anthrax LT inh: inconclusive

How did CC(C)CCNC(=O)C(c1ccco1)N(Cc1cccs1)C(=O)Cn1nnc2ccccc21 (configuration not stated) do in these assays?
Prx2 Sm inh: >57; Anthrax LT inh: -5%

What do the screens show for `c1coc(-c2nc(-c3ccncc3)no2)c1`?
Prx2 Sm inh: >57; Anthrax LT inh: -6%

How did CCn1c(CNC(=O)C(C)(C)C)nc2ccccc21 do in these assays?
Prx2 Sm inh: >57; Anthrax LT inh: -5%

Results for O=C(O)Cn1c2c(c3ccccc31)CCCC2 ?
Prx2 Sm inh: >57; Anthrax LT inh: 1%

Results for CC(C)COc1ccc(-c2nnc(-c3ccncc3)o2)cc1 ?
Prx2 Sm inh: >57; Anthrax LT inh: -2%

How did COc1cccc(CNC(=O)CCn2c(=O)oc3ccccc32)c1 do in these assays?
Prx2 Sm inh: >57; Anthrax LT inh: 3%

What do the screens show for `O=C(NC1CCCCC1)N1CCCc2ccccc21`?
Anthrax LT inh: -15%

How did Cc1ccccc1CSCC(=O)NC(=O)NCc1ccco1 do in these assays?
Prx2 Sm inh: >57; Anthrax LT inh: -1%

What do the screens show for `CCN(CC)C(=O)N[C@@H]1C=C2c3cccc4[nH]cc(c34)C[C@@H]2N(C)C1`?
Prx2 Sm inh: >57&>57; Anthrax LT inh: -15%&15%

What do the screens show for `CC(C)C[C@@H](CC(=O)N[C@@H](CCCN)CC(=O)N[C@@H]1CCNC[C@H]1C(=O)N[C@H](CC(=O)N[C@@H](CCC(=O)O)CC(=O)O)Cc1ccccc1)NC(=O)[C@@H]1CCCC[C@H]1N`?
Prx2 Sm inh: >57; Anthrax LT inh: -11%

Results for COc1ccc(-n2nnnc2SCC(=O)NCc2ccco2)cc1OC ?
Prx2 Sm inh: >57; Anthrax LT inh: 15%

What do the screens show for `Cc1cc(NC(=O)CSc2nccn2-c2ccc(F)cc2)no1`?
Prx2 Sm inh: >57; Anthrax LT inh: 3%

Results for Cc1ccc(S(=O)(=O)N2CCN(Cc3ccccc3C(F)(F)F)CC2)cc1 ?
Prx2 Sm inh: >57; Anthrax LT inh: inconclusive

Results for O=C(Nc1ccon1)c1cc2c(s1)CCCCCC2 ?
Prx2 Sm inh: >57; Anthrax LT inh: -17%

Results for CCn1c(SCC(=O)c2ccc(F)cc2)nnc1-c1ccoc1C ?
Prx2 Sm inh: >57; Anthrax LT inh: -14%

How did CCN1C[C@]2(C)CC[C@H](OC)[C@@]34[C@@H]2[C@H](OC(C)=O)[C@]2(OCO[C@@]25C[C@@H](OC)[C@@H]2C[C@@]3(O)[C@H]5[C@@H]2OC)[C@H]14 do in these assays?
Prx2 Sm inh: >57; Anthrax LT inh: -2%[3.58 µM]

What do the screens show for `O=C(NC1CCCC1)C(c1ccsc1)N(Cc1ccco1)C(=O)Cc1cccs1` (configuration not stated)?
Prx2 Sm inh: >57; Anthrax LT inh: 3%

Results for Cc1nc2ccc(N)cc2s1 ?
Prx2 Sm inh: >57; Anthrax LT inh: 2%

What do the screens show for `Cn1c(SCCN2CCCCC2)nnc1-c1ccccc1Br`?
Prx2 Sm inh: >57; Anthrax LT inh: 7%

Results for O=C(c1ccccc1)c1ccc(C(=O)N2CCN(c3ccc(F)cc3)CC2)o1 ?
Anthrax LT inh: inconclusive

Three structures from above, sorted by SMILES length, rising:
Results for O=C(Nc1ccon1)c1cc2c(s1)CCCCCC2 ?
Prx2 Sm inh: >57; Anthrax LT inh: -17%

Results for CCn1c(SCC(=O)c2ccc(F)cc2)nnc1-c1ccoc1C ?
Prx2 Sm inh: >57; Anthrax LT inh: -14%

What do the screens show for `CCN(CC)C(=O)N[C@@H]1C=C2c3cccc4[nH]cc(c34)C[C@@H]2N(C)C1`?
Prx2 Sm inh: >57&>57; Anthrax LT inh: -15%&15%

Continuation:
How did O=C(Nc1ncc(C(F)(F)F)cc1Cl)C1COc2ccccc2O1 (configuration not stated) do in these assays?
Prx2 Sm inh: >57; Anthrax LT inh: 0%

Results for COc1ccc(N(CC(=O)Nc2cc(OC)ccc2OC)S(=O)(=O)c2c(C)nn(C)c2C)cc1 ?
Prx2 Sm inh: >57; Anthrax LT inh: 7%

What do the screens show for `CCCCN(CCCC)Cc1ccc(N)cc1`?
Prx2 Sm inh: >57; Anthrax LT inh: -6%

How did N[C@@H](Cc1c[nH]c2ccccc12)C(=O)O do in these assays?
Prx2 Sm inh: >57; Anthrax LT inh: 10%

What do the screens show for `Cc1oc2c(c1C(=O)NCc1ccccc1)CCCC2`?
Prx2 Sm inh: >57; Anthrax LT inh: inconclusive

Results for CCOC(=O)C1CCCN(C(=O)Cn2cccc2C(=O)c2ccccc2)C1 (configuration not stated) ?
Prx2 Sm inh: >57; Anthrax LT inh: inconclusive

What do the screens show for `COc1cc(NS(=O)(=O)c2ccc3c(c2)oc(=O)n3C)cc(OC)c1OC`?
Prx2 Sm inh: >57; Anthrax LT inh: inconclusive

Screening data (PubChem)
